Source: PubChem
Mtb hypoxia inh: PubChem AID 1159583. 0.1% of 300,000 active. fluorescence inhibition, % (concentration not given with the values). M. tuberculosis hypoxia-regulated fluorescent reporter, fluorescence;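 active means 35 to 45% if threefold the growth effect, above 45% if 1.5-fold the growth effect; inactive means the rest, general growth blockers included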;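 further: wells of about 50 µL received 100 nL stock; 0% = vehicle wells and 100% = reference inhibitor wells; whole bacteria with a GFP reporter of the hypoxia response; strong numbers were not always called active; many hits fall short of the cut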
PrP 5UTR inh: inhibition of PrP 5' UTR reporter expression | cell-based PrP 5' UTR mRNA reporter, plate reader | inhibition, % (concentration not given with the values) | 0.35% of 340,000 active | AID 488862, 2010;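 active means every replicate at 50% or more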;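 further: 0 = median of the neutral control wells; tested in H4 reporter cells; numbers are from one replicate; inactives centre near -14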
Bead autofluor: flagged as autofluorescent in microsphere protease counterscreen; fluorescence intensity (no concentration beside the values); 3.1% of 360,000 active; compound autofluorescence counterscreen, microsphere flow cytometry; hits give high values;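 active means at least 3 SD above the mean of all compounds, about 16000 in these data; inconclusive means too few beads counted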;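 further: 100 nL of 1 mM stock went into each well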
BJeLR viability: MLPCN primary cell-based screen for lethality selective to Ras in HRASV12 cells; BJeLR (HRASV12) viability, CellTiter-Glo ATP luminescence, 48 h; reference of the scale not given here; inhibition, % (concentration not given with the values); 0.17% of 300,000 active; AID 1554, 2009;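 active means replicate mean above 50%; inconclusive means above 50% but judged a plate artefact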;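 further: 50 nL library stock added to about 25 µL; numbers are from one replicate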
RN4220 kill: growth inhibition of S. aureus RN4220, primary screen, OD600 | 0.33% of 330,000 active | inhibition, % (test concentration not listed) | 16 h;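 active means z-score of -3 or lower and OD600 up to 0.18 on both plates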;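 further: plate controls were untreated cells for no effect and reference antibiotic for full effect; stock transfer was 100 nL into about 80 µL; one replicate is shown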
ugtP null kill: growth inhibition of ugtP-null S. aureus, primary screen, RN4220 ugtP deletion, OD600; 16 h; some inactives read as strong as hits; growth inhibition, % (concentration not given with the values); 0.54% of 330,000 active; AID 1259309, 2017;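 active means z-score under -3 and OD600 up to 0.15 on both plates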;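 further: plate controls were untreated wells for no effect and antibiotic for full effect; wells of about 80 µL received 100 nL stock; the first replicate is given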
Mtb hypoxia inh growth: also measured in Mtb hypoxia inh; calls as there; growth inhibition, %; measured here: M. tuberculosis growth (absorbance);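 0% = vehicle and 100% = reference antibiotic; read after six days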
* = called active by the depositor; ? = inconclusive; . = not tested or not shown.

1: CCOC(=O)C1[C@H]2C(=O)N(CCCOC)C[C@]23C=C[C@H]1O3 (stereo partly drawn)
2: C[C@]12c3[nH]c4ccc(Cl)cc4c3CCN1C(=O)[C@@H](CC(=O)NCc1ccco1)C[C@@H]2C(=O)N1CCOCC1
3: COc1ccc(CN2CCNC(=O)C2CC(=O)NCc2csc(C(C)C)n2)c(OC)c1 (stereo not drawn)
4: O=C(Nc1ccc(F)cc1)c1cccnc1Oc1ccccc1
5: COc1cccc(C(C)NC(=O)c2c(F)cccc2Cl)c1 (stereo not drawn)
6: COc1ccc(OCc2nc3ccc(S(=O)(=O)Nc4ccccc4Cl)cc3[nH]2)cc1
7: CCc1cccc(C)c1NC(=O)CSc1nnc(Cc2csc(C)n2)o1
8: Cc1nnc2c(NC(C)C)nc3ccccc3n12
entry no.,1,2,3,4,5,6,7,8
Mtb hypoxia inh,3,-8,2,15,5,12,15,-2
Mtb hypoxia inh growth,7,8,3,8,13,5,-1,9
PrP 5UTR inh,3,-17,.,-2,-18,-32,2,-25
Bead autofluor,10758,3488,.,3738,2342,2478,?,3033
BJeLR viability,1,.,4,3,1,5,0,-6
RN4220 kill,2.4,0.8,6.9,5.3,3.2,4.8,4.8,-7.7
ugtP null kill,-1,-2,11,6,0,-11,14,-6

Records 5–8 from above:
5: COc1cccc(C(C)NC(=O)c2c(F)cccc2Cl)c1 (stereo not drawn)
6: COc1ccc(OCc2nc3ccc(S(=O)(=O)Nc4ccccc4Cl)cc3[nH]2)cc1
7: CCc1cccc(C)c1NC(=O)CSc1nnc(Cc2csc(C)n2)o1
8: Cc1nnc2c(NC(C)C)nc3ccccc3n12
entry no.,5,6,7,8
Mtb hypoxia inh,5,12,15,-2
Mtb hypoxia inh growth,13,5,-1,9
PrP 5UTR inh,-18,-32,2,-25
Bead autofluor,2342,2478,?,3033
BJeLR viability,1,5,0,-6
RN4220 kill,3.2,4.8,4.8,-7.7
ugtP null kill,0,-11,14,-6

(listing goes on)
9: CCc1ccc(S(=O)(=O)Nc2nnc(N)s2)cc1
10: O=C(CSCC(=O)Nc1ccc2ccccc2c1)NCc1ccccc1
11: O=C1N[C@@H](Cc2c[nH]c3ccccc23)COC(=O)[C@@H](Cc2ccc(F)cc2)CC/C=C/C[C@@H]1CC(=O)N(CCO)Cc1ccccc1
12: Cc1ccc(NS(=O)(=O)c2cc(C(=O)NCc3ccccn3)ccc2Cl)cc1
13: CC(C)(C)c1ccc(C(=O)Nc2cccc(S(=O)(=O)NC3=NCCC3)c2)cc1
14: Fc1ccc(Nc2cccc3nccnc23)cc1
15: O=C(Cn1c(=O)c(=O)n(Cc2ccccc2)c2ccc(Cl)cc21)NCC1CCCO1 (stereo not drawn)
16: CCS(=O)(=O)N1Cc2ccccc2CC1C(=O)Nc1ccc(NC(C)=O)cc1 (stereo not drawn)
entry no.,9,10,11,12,13,14,15,16
Mtb hypoxia inh,.,6,-8,11,0,21,-3,.
Mtb hypoxia inh growth,.,1,0,-2,2,8,7,.
PrP 5UTR inh,-1,-18,-10,-29,-28,-17,-21,-7
Bead autofluor,3215,3955,3509,8226,5821,1977,4209,3509
BJeLR viability,-2,-4,.,-17,.,9,1,5
RN4220 kill,1.9,-1.4,-5.7,-2.2,1.5,8.4,3.1,1.3
ugtP null kill,21,-5,-5,27,7,-4,7,-2

17: NC(=NOC(=O)c1ccc(Cl)cc1[N+](=O)[O-])c1cccnc1
18: COC(=O)c1cccc(NC(=O)CN2C(=O)c3ccccc3C2=O)c1
19: O=C(Cn1[nH]c(=O)c2ccccc2c1=O)OCC(=O)c1ccccc1
20: C=C(C)C(=O)Oc1ccc(N2C(=O)CCC2=O)cc1
21: COc1ccccc1Nc1nn2c(=O)c3ccc(C(=O)NCc4cccnc4)cc3nc2s1
22: CCc1ccc(NC(=O)CSc2nnc(-c3cnccn3)n2Cc2ccco2)cc1
23: CN(C)C(=O)NCc1ccc(S(N)(=O)=O)cc1
24: COC(=O)[C@H](CCSC)NC(=O)Nc1cc(OC)cc(OC)c1
entry no.,17,18,19,20,21,22,23,24
Mtb hypoxia inh,15,0,1,-9,.,-1,8,13
Mtb hypoxia inh growth,6,-5,1,0,.,9,-2,14
PrP 5UTR inh,.,4,-5,-6,1,-28,-17,3
Bead autofluor,.,2908,6349,4571,5434,10770,11554,4515
BJeLR viability,.,-2,.,-8,-2,3,-3,-11
RN4220 kill,2.5,2.2,4.3,2.9,.,5.9,4.5,2.7
ugtP null kill,10,12,4,6,.,-7,12,2

25: O=C(CN(c1ccc2c(c1)OCCO2)S(=O)(=O)c1ccccc1)NCc1ccc(Cl)cc1
26: COc1ccc2oc(C(=O)OCC(=O)/C(C#N)=C(\C)N)c(C)c2c1
27: O=C(Nc1cccc(-c2cnc3ccccc3n2)c1)c1cccc(NC(=O)c2ccco2)c1
28: COc1ccc(CC(C)Nc2cccc(F)c2)cc1 (stereo not drawn)
29: COc1cc(NC(=O)c2cccs2)ccc1NC(=O)c1ccco1
30: Cc1nn(C(C)(C)C)c(OC(=O)c2ccco2)c1Sc1ccccc1
31: C=CCn1c(=O)n2ncnc2c2c3c(sc21)CCCC3
32: CCSc1nnc(NC(=O)c2ccc3ccccc3n2)s1
entry no.,25,26,27,28,29,30,31,32
Mtb hypoxia inh,9,12,-1,8,3,-4,-7,2
Mtb hypoxia inh growth,0,8,11,8,8,-5,3,-7
PrP 5UTR inh,-22,-64,-26,-27,-21,-22,-16,-59
Bead autofluor,9375,3543,4250,3957,4091,5367,11330,3258
BJeLR viability,1,0,-17,1,-9,0,-5,5
RN4220 kill,-9.9,3.3,24,0.7,-2.6,-0.4,-0.2,19
ugtP null kill,-3,5,21,16,6,-7,-3,5

The list goes on; it opens with the 2 that closed the last part.
31: C=CCn1c(=O)n2ncnc2c2c3c(sc21)CCCC3
32: CCSc1nnc(NC(=O)c2ccc3ccccc3n2)s1
33: CN1C2CCC1CC(NS(=O)(=O)c1ccc(C#N)cc1)C2 (stereo not drawn)
34: CCOC(=O)C1(Cc2cccc(OC)c2)CCCN(C(=O)CCc2cccnc2)C1 (stereo not drawn)
35: COc1ccc(NC(=O)c2cc(-c3ccccc3OC)on2)cc1
36: CC(C)NC(=O)CCc1nnc(Cc2cccc(C(F)(F)F)c2)o1
37: CCOc1ccc(NC(=O)CCC(=O)NN=C2CCCc3ccccc32)cc1
38: CCOC(=O)COc1ccc2c(=O)c(-c3ccc(OC)c(OC)c3)c(C(=O)OCC)oc2c1
39: Cn1cnc2c1c(=O)n(Cc1ccc(F)cc1Cl)c(=O)n2C
40: Cc1ccc(/C=C/C(=O)NCc2ccc3c(c2)OCO3)o1
entry no.,31,32,33,34,35,36,37,38,39,40
Mtb hypoxia inh,-7,2,-4,5,3,11,-7,19,.,2
Mtb hypoxia inh growth,3,-7,4,12,5,9,5,4,.,-2
PrP 5UTR inh,-16,-59,-16,-35,-52,-58,.,8,-11,-76
Bead autofluor,11330,3258,5402,3288,11172,2700,.,3811,2893,2120
BJeLR viability,-5,5,10,5,20,-2,.,4,-4,-4
RN4220 kill,-0.2,19,1.8,11,1.4,5.6,-1.9,1.6,2.0,3.9
ugtP null kill,-3,5,5,2,4,1,-8,13,1,15

41: O=C(COC(=O)c1ccccn1)c1cccc(Br)c1
42: Cc1ccc(Cl)cc1Nc1nc(N2CCOCC2)nc(N2CCOCC2)n1
43: NC(=O)[C@H]1CC2(CC(c3cccc(NC(=O)CC(c4ccccc4)c4ccccc4)c3)=NO2)CN1C(=O)CC(c1ccccc1)c1ccccc1 (stereo partly drawn)
44: NC(=O)c1cc(S(=O)(=O)NCCc2ccc(S(N)(=O)=O)cc2)cs1
45: O=C(COC(=O)c1cc([N+](=O)[O-])ccc1N1CCOCC1)Nc1cc(F)ccc1F
46: COCCNC(=O)C(C#N)c1nc2ccccc2nc1N1CCCCCC1 (stereo not drawn)
47: Cc1cc(/C=C2\C(=N)N3N=CSC3=NC2=O)c(C)n1Cc1ccccc1
48: CCN1CCN(C(=O)Nc2ccc(OC)cc2OC)CC1
entry no.,41,42,43,44,45,46,47,48
Mtb hypoxia inh,0,8,.,-6,-5,1,-1,3
Mtb hypoxia inh growth,0,6,.,-1,2,8,9,-7
PrP 5UTR inh,-12,-17,7,-6,-12,-9,-24,-16
Bead autofluor,3931,5423,3030,5541,?,2602,3578,2513
BJeLR viability,-9,11,5,9,2,-22,6,5
RN4220 kill,-1.1,-0.1,.,1.5,7.6,-9.9,4.0,2.7
ugtP null kill,5,-6,.,6,5,-17,-12,0

49: COc1ccc(CCn2c(=N)c(C(=O)NCC3CCCO3)cc3c(=O)n4cccc(C)c4nc32)cc1 (stereo not drawn)
50: O=C(NNc1nc2c(F)cc(F)cc2s1)C1COc2ccccc2O1 (stereo not drawn)
51: CSc1ccccc1NC(=O)c1ccncc1
52: c1cn(CCCNc2ncnc3nc[nH]c23)cn1
53: Cc1cc(C)c(C)c(OCC(=O)O/N=C(\N)c2cccnc2)c1
54: COC(=O)CC1=C(C(=O)OC)C(c2ccc3c(c2Cl)OCO3)C(C#N)=C(N)O1 (stereo not drawn)
55: CCN1CCCC(OC(=O)c2cc(-c3ccc(C)cc3)nc3ccccc23)C1 (stereo not drawn)
56: CCCCn1c(=N)n(CC(=O)c2ccc(OC)cc2)c2ccccc21
entry no.,49,50,51,52,53,54,55,56
Mtb hypoxia inh,.,11,6,2,-5,3,2,6
Mtb hypoxia inh growth,.,2,6,-1,-4,12,3,4
PrP 5UTR inh,6,-6,0,-29,-26,-8,-5,.
Bead autofluor,4381,4014,10758,6017,4527,11091,2300,.
BJeLR viability,13,6,3,2,3,19,3,5
RN4220 kill,.,-0.5,4.7,0.7,5.7,2.8,1.4,-1.7
ugtP null kill,.,-4,9,8,1,-2,2,-7

57: O=C(Cn1c(NCCO)nc2ccccc21)c1ccccc1
58: Fc1cccc(C=NNc2ccccn2)c1
59: CCOC(=O)c1c(O)c2cccc3c2n(c1=O)CC3
60: CCOc1cc(/C=C/c2cc(C(F)(F)F)[nH]c(=O)n2)ccc1O
61: CCS(=O)(=O)c1nc(S(=O)(=O)c2ccc(C)cc2)c(N2CCCC2)s1
62: CCOC(=O)C1CCCN(CCC(=O)Nc2ccccc2)C1 (stereo not drawn)
63: O=C(c1scc2c1CCCC2)N1CCCCC1
64: O=P(OC1CCCCC1)(OC1CCCCC1)C(O)c1cccnc1 (stereo not drawn)
entry no.,57,58,59,60,61,62,63,64
Mtb hypoxia inh,-1,-10,9,.,-3,9,.,0
Mtb hypoxia inh growth,-1,-3,6,.,-5,6,.,-1
PrP 5UTR inh,-6,.,-9,-14,-17,-10,-11,-16
Bead autofluor,2540,.,6824,4851,4771,?,2792,6092
BJeLR viability,1,.,-5,6,0,3,3,-5
RN4220 kill,5.9,2.3,6.2,.,3.5,-10,6.3,2.1
ugtP null kill,4,-10,2,.,13,-3,1,12

65: O=C(/C=C/c1ccc2c(c1)OCO2)c1ccc[nH]1
66: COc1ccc(NS(=O)(=O)c2cc(NC(=O)c3sccc3C)ccc2N2CCOCC2)cc1
67: CC(C)(C)c1cc(C(=O)NNC(=O)Nc2ccccc2)n(Cc2ccccc2)n1
68: CC(C)N(C(=O)[C@H]1C[C@H](CC(=O)NCCc2ccccn2)C(=O)N2CCc3c([nH]c4cc(CCC(=O)N(C)C)ccc34)[C@]12C)C(C)C
69: CC(=O)c1ccc(NCC(=O)N2CCN(S(=O)(=O)c3ccccc3)CC2)cc1
70: Clc1cccc(Oc2ncccn2)c1
71: O=C(Nc1ccccc1Cl)c1ccc([N+](=O)[O-])o1
72: O=C(O)C(c1ccccc1)C(c1ccccc1)c1ccccc1 (stereo not drawn)
73: CC(C(=O)Nc1ccc2c(c1)OCO2)N(C)CC(=O)Nc1ccc(Cl)cc1 (stereo not drawn)
entry no.,65,66,67,68,69,70,71,72,73
Mtb hypoxia inh,6,-1,11,-6,11,2,20,-5,6
Mtb hypoxia inh growth,7,3,0,6,9,1,16,2,-3
PrP 5UTR inh,-98,-23,-15,5,-10,-12,-11,-6,-12
Bead autofluor,1902,5966,3610,3294,3364,2498,3377,2587,.
BJeLR viability,7,6,-6,.,.,-6,-9,-7,.
RN4220 kill,3.2,4.3,-0.1,0.6,7.7,2.4,5.9,16,1.3
ugtP null kill,-12,3,-4,6,5,4,16,-2,4
